TRPML1 ag: human mucolipin-1 channel agonism; Q9GZU1; TRPML1-expressing cells, Ca2+ dye fluorescence, FDSS; host cell line not named in the record; reference of the full effect not given here; activation, % (test concentration not listed); actives 0.12% (n = 410,000); in the data active = activation above about 50%; inconclusive = about 30% to 50%; inactive = below about 30%; note: 0% is about no effect; the text of the record puts the active cut at 80%
Target sequence (Q9GZU1 whole entry, looked up): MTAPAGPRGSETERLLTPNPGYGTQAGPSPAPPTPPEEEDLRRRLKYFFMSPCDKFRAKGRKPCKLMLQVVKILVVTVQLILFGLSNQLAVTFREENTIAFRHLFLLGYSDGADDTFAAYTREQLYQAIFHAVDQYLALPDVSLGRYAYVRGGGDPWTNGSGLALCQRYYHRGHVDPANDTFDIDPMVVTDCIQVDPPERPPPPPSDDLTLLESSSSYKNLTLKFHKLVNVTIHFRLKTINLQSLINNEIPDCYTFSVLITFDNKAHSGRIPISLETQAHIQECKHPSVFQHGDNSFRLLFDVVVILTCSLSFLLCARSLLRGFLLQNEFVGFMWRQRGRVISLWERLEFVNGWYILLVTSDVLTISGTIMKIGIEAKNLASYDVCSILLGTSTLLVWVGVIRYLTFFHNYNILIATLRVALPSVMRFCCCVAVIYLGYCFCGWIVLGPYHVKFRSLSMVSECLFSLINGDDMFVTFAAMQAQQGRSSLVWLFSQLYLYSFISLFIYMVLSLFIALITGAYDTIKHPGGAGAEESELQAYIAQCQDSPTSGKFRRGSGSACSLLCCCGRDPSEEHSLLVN
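Kinetic FDSS Ca2+ read in Tet-induced TRPML1-DL cells (ABD Ca8 dye plus quencher, 45-90 min RT loading): baseline, then compound, then 110 s agonist window; EC80 agonist 54-4 at 4uM final added afterwards for a 110 s antagonist window.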
D2 PAM: human D2 receptor positive allosteric modulation; P14416; actives 0.23% (n = 360,000); DiscoveRx D2 beta-arrestin cells, luminescence, 90 min; 100% = 57 uM dopamine signal; AID 624464; potentiation, % (concentration not given with the values); active = potentiation of 50% or more; inconclusive = 30% to 50%; inactive = 30% or less;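 note: compound concentration not given in the record; tested on top of an EC20 dose of dopamine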
Target sequence (P14416 whole entry, looked up): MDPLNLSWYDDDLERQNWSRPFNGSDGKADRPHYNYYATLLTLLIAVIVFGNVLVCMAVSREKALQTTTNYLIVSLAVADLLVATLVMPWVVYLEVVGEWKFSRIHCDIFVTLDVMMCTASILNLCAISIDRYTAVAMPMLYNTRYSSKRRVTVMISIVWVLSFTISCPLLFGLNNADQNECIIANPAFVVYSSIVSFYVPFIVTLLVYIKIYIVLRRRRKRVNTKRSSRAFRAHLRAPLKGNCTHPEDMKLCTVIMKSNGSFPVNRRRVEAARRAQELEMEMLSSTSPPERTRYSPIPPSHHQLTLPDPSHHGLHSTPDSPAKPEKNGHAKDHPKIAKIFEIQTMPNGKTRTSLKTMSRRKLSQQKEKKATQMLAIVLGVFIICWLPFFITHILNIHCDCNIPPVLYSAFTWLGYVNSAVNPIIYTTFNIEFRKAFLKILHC
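PathHunter D2 cells, attached overnight at 37 deg C, received compound in DMSO plus dopamine at EC20 (50 nM final) for 90 min at 37 deg C. Beta-arrestin recruitment was read as luminescence after 1 h with detection reagent at ambient temperature.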
Six1-Eya2 blk: inhibitors of human Six1/Eya2 interaction. AlphaScreen GST-Six1/His-Eya2 binding, biochemical; active compounds read low; control for the full effect not named in the record. activity change, % (concentration not given with the values). Q15475+O00167. actives 0.56% (n = 360,000); in the data active = activity change below about -65%; inconclusive = about -30% to -65%; inactive = above about -30%; note: % is set by controls: 0 for no effect and ±100 for the full control effect
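GST-Six1 + His-Eya2 (5X stock: 250/500 nM); Tris pH 8.0, 300 mM NaCl, 0.05% BSA, 0.02% Tween 20; GSH donor/Ni acceptor beads; 1 h 37 °C dark; AlphaScreen readout.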
TRPV1 PAM: enhances activation of the human vanilloid receptor TRPV1 | TRPV1-expressing cells, Fluo-8 calcium influx, capsaicin EC20 potentiation; host cell line not named in the record; control for the full effect not named in the record | potentiation, % at 8.33 µM | actives 0.02% (n = 320,000); active means potentiation above 80%; inconclusive means 30% to 80%; inactive means below 30%; note: 0% is about no effect
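Fluo-8 calcium influx in TRPV1-expressing cells, kinetic read (ex 480/em 520 nm). Compound added and read 3 min for agonist activity, followed by capsaicin at EC20 final and 2 min further read for enhancement.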
CtBP-E1A blk: inhibitors of CtBP/E1A interaction | AlphaScreen GST-E1A/His-CtBP binding, 1536-well; active compounds read low; control for the full effect not named in the record | activity change, % (test concentration not listed) | actives 0.49% (n = 340,000); in the data active means activity change below about -65%; inconclusive means about -30% to -65%; inactive means above about -30%; note: % is set by controls: 0 for no effect and ±100 for the full control effect
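GST-E1A and His-tagged CtBP (125 nM each as 5X stock) were preincubated with pin-transferred compound for 2 h at 37 °C in the dark, then glutathione donor and nickel acceptor beads were added for 1 h before AlphaScreen reading.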
TRPML1 inh: human mucolipin-1 channel inhibition. Q9GZU1. TRPML1-inducible cells, Ca2+ dye fluorescence, FDSS; active compounds read low; inhibition of EC80 agonist-evoked calcium signal. activity change, negative = inhibition, % (concentration not given with the values). actives 0.02% (n = 390,000). AID 624415; in the data active means activity change below about -50%; inconclusive means about -30% to -50%; inactive means above about -30%;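 note: stimulus is agonist 54-4 at its EC80 concentration; % is set by controls: 0 for no effect and ±100 for the full control effect; the text of the record puts the active cut at -80%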
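Calcium fluorescence in TRPML1-DL cells induced overnight with Tet: a 110 s read after compound pin addition, then a 110 s antagonist read after challenge with 54-4 at 4 uM final (EC80).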
Active calls of the source: *; ? = inconclusive; . = not tested or not shown; & = joins results of further samples.

SMILES	TRPML1 ag	D2 PAM	Six1-Eya2 blk	TRPV1 PAM	CtBP-E1A blk	TRPML1 inh
CCOC(=O)Cn1cc(C(=O)C(=O)N2CCOCC2)c2ccccc21	0.4	-7	-1	1	0	17
CCC(=O)Nc1cc(C(=O)OCC(=O)c2ccccc2Cl)ccc1C	0.0	-11	1	?	10	3
O=C(NC(=S)Nc1ccccn1)c1ccccc1	-0.7	-12	-8	-21	.	-1
CCOC(=O)Nc1cc(C)c(Cl)cc1OC	0.8	29	10	-5	15	-30
CC(C)COc1cccc(C(=O)Nc2ccc(N3CCOCC3)cc2N2CCOCC2)c1	1.2	-10	-3	-13	-1	10
O=C(NCC1CC1)C1(C(F)(F)F)C/C(=C\Cc2ccccc2)CCCO1 (stereo not drawn)	1.8&3.6	-4	13	.	18	9&19
Cn1c(CSc2nc3ccc(Br)cc3[nH]2)nc2ccccc21	2.1	-22	-3	5	-2	3
Cc1onc(-c2ccccc2)c1-c1ccc(S(N)(=O)=O)cc1	-1.0	-6	-2	7	0	1
COC(=O)CSc1nc(N)c(C#N)c(-c2ccc(O)cc2)c1C#N	1.0	12	-1	8	-1	-6
Cc1ccsc1C(=O)N1CCN(S(=O)(=O)c2cccc(F)c2)CC1	0.9	6	-1	-11	1	-1
O=S(=O)(c1ccc(N2CCCC2)cc1)C(F)(F)F	1.2	-6	17	15	14	-6
COc1ccc(NC(=O)c2ccc(-c3c(C)noc3C)c3ccoc23)cn1	-1.0	1	-25	.	-21	.
COCn1c(-c2cccc(Br)c2)nc2ccccc21	2.0	-8	12	-10	18	7
CCOc1ccccc1C(=O)N(Cc1cccs1)C1CCS(=O)(=O)C1 (stereo not drawn)	0.3	-32	-8	-7	-2	12
Cc1cc(Br)ccc1NC(=O)CN(C)C(=O)CSC(=S)N1CCCC1	-0.9	-13	-7	-3	14	-8
Cc1ccc(C)c(CC(=O)N2CCCC(c3cc(C(=O)NCc4cccnc4)no3)C2)c1 (stereo not drawn)	-0.5	-19	-3	.	0	.
Cc1ccc2nc(C3CCCN(C(=O)NCc4ccccc4)C3)[nH]c2c1 (stereo not drawn)	3.5	-12	-3	4	-4	-6
COc1ccc(CCNC2=CC(=O)CCC2)cc1OC	-0.1	-11	0	.	1	.
CC(=O)Oc1ccc(N2C(=O)c3cccc4c([N+](=O)[O-])ccc(c34)C2=O)cc1	3.2	-14	-15	-6	-8	-4
CC(=O)N1CCN(C(=O)c2cc(=O)c3ccccc3o2)CC1	0.2	-8	3	4	-11	-8
O=C(Cc1cccs1)NCc1ccccc1	1.1	-6	10	?	2	22
Cc1ccc2nsnc2c1S(=O)(=O)N(Cc1ccco1)Cc1cc2cccc(C)c2[nH]c1=O	-0.6	-1	1	8	1	1
CCC(=O)c1ccc(OCC(O)CN2CCN(S(=O)(=O)N3CCCCC3)CC2)cc1 (stereo not drawn)	-0.2	-20	0	-32	3	2
O=C(CN1CCCCCC1)Nc1cccc([N+](=O)[O-])c1	0.4	-6	7	7	.	23
Cc1ccc(C(=O)N/C(=C/c2cccs2)C(=O)NCC2CCCO2)cc1 (stereo not drawn)	1.3	-4	-5	1	0	33
CCC(NC(=O)Cc1c(C)c2ccc(OC)c(C)c2oc1=O)C(=O)NC(Cc1ccc(Cl)cc1)C(=O)O (stereo not drawn)	.	-25	-18	5	-21	.
c1ccc2c(N3CCOCC3)nc(-c3ccncc3)nc2c1	1.5	-4	2	-1	-8	-8
Cc1ccc(OCC(=O)O/N=C(\N)c2ccccn2)cc1C	1.4	-1	2	11	4	16
CC1C2CC(C(CN(C)C)/C2=N/O)C1(C)C (stereo not drawn)	0.4	-7	5	-10	9	32
COc1cc(-c2nnc(-c3ccc(S(=O)(=O)c4ccccc4)cc3)o2)cc(OC)c1OC	-0.2	1	7	1	-1	-7

Complete entries as entered above. Screens in order: TRPML1 ag, D2 PAM, Six1-Eya2 blk, TRPV1 PAM, CtBP-E1A blk, TRPML1 inh
c1ccc2c(N3CCOCC3)nc(-c3ccncc3)nc2c1 is entered as 1.5, -4, 2, -1, -8, -8
O=C(Cc1cccs1)NCc1ccccc1 is entered as 1.1, -6, 10, ?, 2, 22
Cc1ccc2nsnc2c1S(=O)(=O)N(Cc1ccco1)Cc1cc2cccc(C)c2[nH]c1=O is entered as -0.6, -1, 1, 8, 1, 1

Continuation.
SMILES	TRPML1 ag	D2 PAM	Six1-Eya2 blk	TRPV1 PAM	CtBP-E1A blk	TRPML1 inh
Cn1c(Cc2cccs2)nnc1SCC(=O)N1CCCc2ccccc21	-0.5	-14	1	2	2	5
CCCCc1n(CC(=O)c2ccc(Cl)cc2)c2ccccc2[n+]1C	-0.4	-9	1	11	0	-4
CNC(=O)/C(C#N)=C/c1cccc(Oc2ccccc2)c1	0.0	-5	3	-3	3	-1
CSc1ccccc1OCc1cc(C(=O)N(C)CCc2c(C)n[nH]c2C)no1	0.4	-11	1	9	-10	-4
Cc1cnc(C)c(Nc2nc(C(N)Cc3ccc(Cl)cc3)cs2)n1 (stereo not drawn)	0.7	-6	-20	.	?	.
COc1ccccc1NC(=O)c1cc([N+](=O)[O-])ccc1N1CCOCC1	0.2	0	-6	-3	-1	11
CC(C)C[C@@H](COCc1ccc(F)cc1)N1CCN(C(=O)c2cccc(C(F)(F)F)c2)CCC1=O	-0.5	.	0	.	0	.
COc1cccc(CN2CCN(Cc3nc(C(C)C)cs3)CC2CCO)c1 (stereo not drawn)	-0.4	-15	-2	6	3	6
CN=C(NC(=O)Nc1c(C)cccc1C)NC(=O)Nc1c(C)cccc1C	0.3	-6	7	1	5	41
CCOC(=O)c1sc(=S)n(CC)c1NC(=O)C1CC1	1.4	-13	12	-13	10	-26
O=C(CSc1nc2ccccc2s1)NCC1CCCO1 (stereo not drawn)	0.2	-44	0	13	-4	5
COc1ccc(OCC(=O)Nc2cccc(OC)c2)cc1	0.5	-5	4	-9	-4	19
Cc1nn(-c2ccccc2)c2c1C(c1cccc([N+](=O)[O-])c1)N(c1ccccc1)C(=O)N2 (stereo not drawn)	-0.4	-18	-7	8	1	17
Cc1ccc(N(CC(=O)NCc2ccc(F)cc2)C(=O)c2snc(C(N)=O)c2N)cc1C	0.0	12	13	1	0	3
CC1CCCC(NC(=O)C2c3ccccc3C(=O)N2Cc2cccs2)C1C (stereo not drawn)	1.6	-28	1	13	1	23
O=C(O)c1ccccc1/C=N/N1CCN(C2c3ccccc3-c3ccccc32)CC1	0.0	7	-9	19	-26	1
COC(=O)CC1=C(C)C(=O)CC2C(C)(C)CCCC12C (stereo not drawn)	0.3	0	7	-18	-7	34
CCCCC[C@H](C)N1C[C@@H](COCc2ccccc2)Oc2cc(N3CC[C@H](O)C3)ccc2S1(=O)=O	0.0	.	1	.	-10	.
CC1CCCCC1NC(=O)c1ccco1 (stereo not drawn)	0.5	-9	3	10	0	1
Cc1ccccc1N(CC(=O)Nc1ccc(F)cc1)S(C)(=O)=O	-0.1	-9	0	-17	1	7
CC(C)CC(=O)Nc1nnc(SCC(=O)Nc2ccc(F)cc2)s1	0.4	-6	3	15	7	-11
COc1ccccc1OCCCCn1ncc2ccc(OC)c(OC)c2c1=O	-0.4	-5	0	8	.	12
O=C1Nc2ccccc2Oc2cc([N+](=O)[O-])ccc21	0.2	11	-9	13	-2	24
COc1cc(OC)cc(C(=O)NNC(=O)Cc2cccs2)c1	-0.8	-5	2	.	.	10
Cc1cccc(C(=O)NNS(=O)(=O)c2ccccc2)c1O	-0.5	23	2	13	-15	1
CN1C(=O)c2cccc(NC(=O)Cc3ccccc3)c2C1=O	0.3	-6	-1	-11	-4	15
Fc1ccc(N/N=C(/c2ccccc2)c2ccccn2)cc1	-0.6	-4	-18	-1	-6	5
CCOc1ccccc1CN1CCN(Cc2c[nH]c3ccccc23)CC1CCO (stereo not drawn)	0.3	-53	-2	-2	.	8
N#Cc1ccccc1NCC(=O)N1CCN(S(=O)(=O)c2ccccc2)CC1	0.1	-2	-1	8	-1	-10
O=C1[C@@H]2[C@@H]3C[C@@H]([C@H]4ON=C(c5ccc(OCc6ccccc6)cc5)[C@@H]34)[C@@H]2C(=O)N1c1ccc2c(c1)OCO2	2.0	7	-11	-3	-1	-1
O=c1cc(-c2ccc(O)cc2)oc2c(C3OCC(O)C(O)C3O)c(O)c(C3OC(CO)C(O)C(O)C3O)c(O)c12 (stereo not drawn)	-0.5	-4	-8	-3	-4	6
Cc1cc(NC(=O)C2Oc3ccccc3OC2C)no1 (stereo not drawn)	-0.1	0	4	6	0	0
Oc1ccc2c(ccc3[nH]cnc32)c1	-0.2	-17	0	19	.	11
CN(C)c1cnn(-c2ccccc2)c(=O)c1Cl	0.2	-9	3	-7	1	20

Some of the entries above in a different format.
molecule,TRPML1 ag,D2 PAM,Six1-Eya2 blk,TRPV1 PAM,CtBP-E1A blk,TRPML1 inh
COCn1c(-c2cccc(Br)c2)nc2ccccc21,2.0,-8,12,-10,18,7
CCOc1ccccc1C(=O)N(Cc1cccs1)C1CCS(=O)(=O)C1 (stereo not drawn),0.3,-32,-8,-7,-2,12
Cc1cc(Br)ccc1NC(=O)CN(C)C(=O)CSC(=S)N1CCCC1,-0.9,-13,-7,-3,14,-8
Cc1ccc(C)c(CC(=O)N2CCCC(c3cc(C(=O)NCc4cccnc4)no3)C2)c1 (stereo not drawn),-0.5,-19,-3,.,0,.
Cc1ccc2nc(C3CCCN(C(=O)NCc4ccccc4)C3)[nH]c2c1 (stereo not drawn),3.5,-12,-3,4,-4,-6
COc1ccc(CCNC2=CC(=O)CCC2)cc1OC,-0.1,-11,0,.,1,.

5 structures out of the list, sorted by number of heavy atoms, lowest first.
SMILES	TRPML1 ag	D2 PAM	Six1-Eya2 blk	TRPV1 PAM	CtBP-E1A blk	TRPML1 inh
Oc1ccc2c(ccc3[nH]cnc32)c1	-0.2	-17	0	19	.	11
CN(C)c1cnn(-c2ccccc2)c(=O)c1Cl	0.2	-9	3	-7	1	20
N#Cc1ccccc1NCC(=O)N1CCN(S(=O)(=O)c2ccccc2)CC1	0.1	-2	-1	8	-1	-10
CCOc1ccccc1CN1CCN(Cc2c[nH]c3ccccc23)CC1CCO (stereo not drawn)	0.3	-53	-2	-2	.	8
O=C1[C@@H]2[C@@H]3C[C@@H]([C@H]4ON=C(c5ccc(OCc6ccccc6)cc5)[C@@H]34)[C@@H]2C(=O)N1c1ccc2c(c1)OCO2	2.0	7	-11	-3	-1	-1
